Source: PubChem
Calb FLC = C. albicans growth modulation with fluconazole. C. albicans CaCi-2 (fluconazole-resistant clinical isolate) + fluconazole, Alamar Blue growth, 48 h. growth inhibition, % (no concentration beside the values). hit rate 0.57% among 300,000. AID 1979;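 active = most replicates above 75%; inconclusive = exactly half above 75%; inactive = most below 75%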;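 note: all wells also contain fluconazole at 8 µg/ml as a sub-toxic cotreatment; 0% = median of DMSO wells and 100% = median of geldanamycin control wells; wells of about 8 µL received 7.5 nL stock; the first replicate is given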
MLL AF4-AF9 inh = blocks AF4 peptide binding to human AF9 | P42568 | AlphaScreen, biotin-AF4 peptide binding to FLAG-AF9 | inhibition, % at 10 µM | hit rate 0.47% among 350,000 | AID 651704;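 active = every replicate reaching a set inhibition limit, whatever the replicate mean, cut at about 25% in these data; inconclusive = mean inhibition reaches that limit but some replicates miss it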;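 note: 0% = plate neutral control median and 100% = total signal loss; the record names both 10 and 1 µM as test concentration; the first replicate is given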
RanGTP-Imp inh = inhibitors of RanGTP-importin-beta interaction, primary screen, biochemical, FRET, CFP-Ran, YFP-importin-beta, homogeneous; inhibition, % (test concentration not listed); AID 2216; hit rate 1.1% among 300,000; cell-free CFP-Ran/YFP-importin-beta FRET ratio;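 active = most replicates above 15%; inconclusive = exactly half above 15%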;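 note: 0% = DMSO wells and 100% = Ran loaded with GDP instead of GTP; wells of about 40 µL received 100 nL stock; the first replicate is given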
Vif TR-FRET = inhibitors of Vif binding to APOBEC3G peptide, primary screen, biochemical, TR-FRET, GST-Vif 1-94, biotin-A3G peptide, dose response retest (AID 1117319); inhibition, %; hits with a dose series show IC50 in µM; TR-FRET GST-Vif / biotin-A3G peptide binding; higher % means a stronger effect; test concentration not given here; strong numbers were not always called active; hit rate 0.57% among 260,000;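 active = above the screen mean plus three standard deviations and confirmed in dose response; inconclusive = results disagree or hit not tested in dose response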;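 note: Vif residues 1-94 fused to GST binding biotinylated APOBEC3G peptide 110-148; 0% = full assay without inhibitor and 100% = GST in place of GST-Vif; retest series ran down from 100 µM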
Beta apoptosis = blocks beta cell apoptosis; AID 435005; hit rate 0.8% among 300,000; protection from apoptosis, % (concentration not given with the values); INS-1E cytokine-induced death, ATP luminescence, 48 h; percent of positive-control rescue, neutral wells zero;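 active = all replicates at 75% or more, or half of them and the mean; inconclusive = half reach 75% but not the mean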;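 note: 0% = cytokine-treated negative control wells and 100% = positive control rescue; higher means more ATP so stronger rescue from cytokine killing; wells of about 40 µL received 100 nL stock; the first replicate is given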
T cruzi inh = blocks replication of Trypanosoma cruzi; T. cruzi beta-gal in NIH3T3, luminescence, 90 h; inhibition, % (test concentration not listed); hit rate 1.4% among 300,000; AID 1885;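 active = mean inhibition across valid replicates above about 55%, limit read from the data; inconclusive = mean below that limit but half or more replicates reach it; inactive = mean below it, under half of replicates reach it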;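 note: signal also drops with host cell toxicity which is not excluded here; 0% = plate median of DMSO wells and 100% = zero luminescence signal; higher percent means less beta-gal luminescence so fewer parasites; stock transfer was 50 nL into about 50 µL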
A1 inh = inhibitors of the anti-apoptotic protein A1, read as caspase activation; MEF A1-2A-BIM cells, Caspase-Glo 3/7 luminescence, 3 h; percent of clofoctol response, vehicle zero; caspase activation, % (no concentration beside the values); hit rate 0.066% among 330,000;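 active = over half of replicate activation scores above 10%, or exactly half above 10 with the replicate mean above 10; inconclusive = replicate mean below 10 yet half the replicates above 10; inactive = over half of replicates below 10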;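 note: wells of about 30 µL received 50 nL stock; many hits fall short of the cut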
LANA-H2A inh = blocks KSHV LANA binding to histone H2A/H2B. hit rate 0.6% among 320,000. Q9QR71. cell-free LANA-H2A/H2B peptide, fluorescence polarization. inhibition, % (test concentration not listed). AID 2629; in the data active = inhibition mostly above about 10%, no sharp cut-off; inactive = mostly below about 6.7%;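 note: stock transfer was 7.5 nL into about 10 µL; 0% = median of vehicle wells and 100% = median of positive control wells; one replicate is shown; the record names a cut of 25% in any replicate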
Target sequence (Q9QR71 whole entry, looked up): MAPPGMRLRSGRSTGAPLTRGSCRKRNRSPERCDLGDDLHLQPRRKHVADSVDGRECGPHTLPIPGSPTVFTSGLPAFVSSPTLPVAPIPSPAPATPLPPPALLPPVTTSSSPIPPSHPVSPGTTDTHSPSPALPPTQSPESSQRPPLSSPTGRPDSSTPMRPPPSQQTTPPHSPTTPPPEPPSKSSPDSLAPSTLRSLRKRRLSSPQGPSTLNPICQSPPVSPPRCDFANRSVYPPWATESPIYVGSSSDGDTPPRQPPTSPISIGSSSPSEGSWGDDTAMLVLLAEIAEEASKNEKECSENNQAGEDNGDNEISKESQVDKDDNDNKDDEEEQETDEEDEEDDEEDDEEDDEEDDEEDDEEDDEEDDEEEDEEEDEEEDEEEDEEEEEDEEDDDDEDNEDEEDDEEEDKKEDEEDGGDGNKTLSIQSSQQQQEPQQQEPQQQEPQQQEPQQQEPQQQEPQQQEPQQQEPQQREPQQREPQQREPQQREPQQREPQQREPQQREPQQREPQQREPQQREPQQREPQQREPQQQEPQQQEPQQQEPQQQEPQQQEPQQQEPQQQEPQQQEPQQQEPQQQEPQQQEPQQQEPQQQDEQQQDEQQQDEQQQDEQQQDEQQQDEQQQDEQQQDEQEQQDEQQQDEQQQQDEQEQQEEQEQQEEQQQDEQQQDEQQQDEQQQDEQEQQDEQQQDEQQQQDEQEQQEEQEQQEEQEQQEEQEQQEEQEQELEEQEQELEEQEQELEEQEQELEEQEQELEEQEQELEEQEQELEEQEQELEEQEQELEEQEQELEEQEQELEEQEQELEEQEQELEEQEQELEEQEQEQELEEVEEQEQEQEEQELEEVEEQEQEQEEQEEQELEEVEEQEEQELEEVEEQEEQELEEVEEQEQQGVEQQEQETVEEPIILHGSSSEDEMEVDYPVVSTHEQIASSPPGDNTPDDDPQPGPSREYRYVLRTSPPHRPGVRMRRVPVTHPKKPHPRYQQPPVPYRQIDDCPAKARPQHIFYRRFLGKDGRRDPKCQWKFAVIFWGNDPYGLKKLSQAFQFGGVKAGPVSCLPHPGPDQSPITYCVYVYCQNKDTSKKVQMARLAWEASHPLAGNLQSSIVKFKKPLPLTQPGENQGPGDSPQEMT
Starred values were filed as active, the others as inactive; ? = inconclusive; nt = not tested or not shown; & = joins results of further samples.

SMILES	Calb FLC	MLL AF4-AF9 inh	RanGTP-Imp inh	Vif TR-FRET	Beta apoptosis	T cruzi inh	A1 inh	LANA-H2A inh
O=C(c1ccccc1F)N1CCCC(C(=O)N2CCc3ccccc3C2)C1 (stereo not given)	-1	nt	0.1	-2%	-7	7	0.3	0.0
COc1cccc(Oc2cc(NN3CCCCC3)c([N+](=O)[O-])cc2[N+](=O)[O-])c1OC	-6	1.5	2.4	nt	8	-4	-0.8	-1.2
COc1ccc(CNC(=O)COC(=O)c2nc3nc(C)cc(C)n3n2)cc1	nt	1.9	nt	-2%	-1	nt	-0.7	9.5
O=C(/C=C/c1ccccc1)NCCSCc1ccccc1Cl	2	nt	-1.3	2%	1	-17	1.2	1.0
O=C(Cn1nnc(-c2ccc(OCc3ccccc3F)cc2)n1)N1CCOCC1	6	nt	6.0	-13%	4	-1	-0.4	2.5
CCn1cc(/C=C(\NC(=O)c2ccccc2F)C(=O)N2CCOCC2)c2ccccc21	17	nt	5.0	nt	-2	1	0.3	-1.8
Cc1onc(-c2ccc(Cl)cc2)c1-c1ccnn1S(=O)(=O)c1cccc(C(F)(F)F)c1	2	-1.0	-1.5	18%	4	25	-0.3	1.3
Cc1ccc(S(=O)(=O)NNC(=O)CCC(=O)Nc2ccccc2)cc1	2	nt	0.6	-3%	-6	21	-0.2	-2.3
COc1ccc(CC(=O)NNc2ncnc3c2cnn3-c2ccc(C)cc2)cc1OC	1	-6.1	8.2	nt	9	3	0.8	-3.9
CC(C)(C)Sc1ccc([N+](=O)[O-])cc1C(=O)Nc1ccncc1	-1	?	1.3	-4%	-1	30	0.2	9.2
Cc1ccc(C=NCc2ccncc2)c(O)c1	-6	nt	1.0	6%	nt	-13	-0.6	-1.3
Cn1c(N)c(C(=O)COC(=O)CCOc2ccc(C(C)(C)C)cc2)c(=O)n(C)c1=O	-3	-0.4	-2.8	-7%	-7	-9	-0.2	0.5
Cc1nc(C)c(-c2csc(Nc3ccc(N)cc3)n2)s1	0	13	4.5	nt	27	-11	-0.3	2.5
O=C1c2ccccc2C(=O)c2[nH]c(=O)[nH]c21	46	-5.5	-0.8	nt	nt	15	-1.6	0.1
O=C(/C=C/c1ccccc1)Nc1ccc2c(c1)OCCO2	49	3.9	-0.7	-7%	4	5	0.9	-3.7
CN(Cc1ccco1)C(=O)C1CCN(c2nnc(-n3cccc3)s2)CC1	25	4.2	4.5	2%	nt	-7	-0.9	-2.0
CN(C(=O)Cn1cccc1C1=NC(c2ccccc2)CO1)c1ccccc1 (stereo not given)	-5	6.9	nt	-10%	0	7	-0.3	-2.9
O=C(O)C1C2C=CC(C2)C1C(=O)Nc1cccc(C(F)(F)F)c1 (stereo not given)	-26	-1.7	-1.9	1%	1	-5	0.8	-1.8
Cc1ccc(S(=O)(=O)N2CCC(C(=O)NCc3ccccc3CN3CCCC3)CC2)cc1C	nt	1.8	nt	nt	10	nt	0.7	-4.3
NC(=O)C1CCN(C2OC(=O)c3ccccc32)CC1 (stereo not given)	-16	nt	0.5	-2%	0	-15	0.1	2.9
COc1ccc(Cn2nnc3ccccc32)cc1	-19	3.2	-0.9	nt	-5	12	0.4	0.6
O=C(O)c1cc(NS(=O)(=O)c2cccs2)cc(NS(=O)(=O)c2cccs2)c1	nt	-2.2	nt	?	2	nt	1.1	4.5
Cc1nn(C)c(C)c1NC(=O)COc1ccc(F)cc1Br	nt	-1.7	nt	-9%	1	nt	0.3	1.3
Cc1nc2sccn2c(=O)c1S(=O)(=O)NCc1ccccc1	-13	-5.2	0.5	nt	-7	0	nt	-3.7
Cc1ccc(NC(=O)CCCn2c(=O)[nH]c3ccsc3c2=O)cc1	-6	nt	5.9	nt	-7	4	0.1	4.1
Further entries follow:
SMILES	Calb FLC	MLL AF4-AF9 inh	RanGTP-Imp inh	Vif TR-FRET	Beta apoptosis	T cruzi inh	A1 inh	LANA-H2A inh
CCC1CCCCN1CCNC(=O)C1CCCN(S(=O)(=O)c2cccc3nsnc23)C1 (stereo not given)	22	3.7	28	4%	1	7	-1.2	-1.3
CCc1ccc(N(C(=O)c2csnn2)C(C(=O)NC(C)(C)C)c2ccncc2)cc1 (stereo not given)	33	nt	-2.3	1%	-1	-8	0.1	5.3
COCc1nnc(NC(=O)c2sc3ccccc3c2Cl)s1	?	nt	2.7	-11%	6	1	-4.4	0.0
Cc1csc(/C(=N\O)c2csc(C)n2)n1	-3	5.1	-1.3	?	0	-1	0.2	7.5
CC(C)Cc1nnc(NC(=O)CCC(=O)NC2CCCCC2)s1	-9	-3.6	1.0	nt	-5	-3	-0.3	3.9
Cc1ccc(C)c(C(=O)COc2ncnc3ccccc23)c1	30	-0.2	0.1	12%	13	3	1.4	-0.3
O=c1ccc(-c2ccc(S(=O)(=O)Nc3cccc(Br)c3)o2)n[nH]1	-8	-11	-0.5	nt	-4	3	2.2	-1.8
CC1CCN(c2ccc(-c3cccc(NC(=O)c4ccco4)c3)nn2)CC1	19	-10	-1.0	-10%	9	27	0.0	-0.9
COc1ccc2c(C)nc(Nc3nc(C)c(C)c(=O)[nH]3)nc2c1	?	nt	0.0	8%	52	1	-0.3	-1.6
COc1ccc(N2CC(C(=O)Nc3c4c(nn3-c3ccccc3)CS(=O)(=O)C4)CC2=O)cc1 (stereo not given)	0	0.4	2.4	nt	-1	-4	-1.8	1.1
[O-]/[N+](=C\C=C\c1ccccc1)c1ccccc1	nt	1.8	3.2	75%	-1	5	-5.0	-0.7
COc1ccccc1N1CCN(C(=O)C2C3C=CC4(CN(Cc5ccccc5Cl)C(=O)C24)O3)CC1 (stereo not given)	18	nt	?	32%&-10%	5	-5	-0.4	-3.0
CC(=O)c1ccc(NS(=O)(=O)c2cccc(C)c2)cc1	13	nt	0.8	4%	-3	-16	-0.3	-1.5
CCC(c1nnnn1C1CCCC1)N1CCN(Cc2ccccc2)CC1 (stereo not given)	0	nt	-0.4	-7%	0	6	0.3	2.0
CN(CC(=O)OCC(=O)c1c(N)n(C)c(=O)n(C)c1=O)S(=O)(=O)c1ccc(Cl)cc1	-2	-0.3	3.7	10%	4	-8	-0.4	-1.2
CCOc1ccccc1NC(=O)NC1(C(=O)N2CCN3CCCC3C2)CCCCC1 (stereo not given)	1	nt	3.5	-1%	-5	-1	0.9	-0.9
COc1ccc(/C(O)=C2/C(=O)C(=O)N(CCCN3CCOCC3)C2c2ccc(OC)cc2)cc1 (stereo not given)	6	1.0	5.3	nt	nt	-11	0.2	-0.5
CN(c1ccccc1C(=O)Nc1cccc(C(F)(F)F)c1)S(C)(=O)=O	-21	nt	?	1%	-5	-6	?	2.0
Cc1ccc(N/C=C/C(=O)c2ccccc2)cc1C	0	nt	6.8	-7%	-3	2	-7.8	4.5
O=C(NCc1ccco1)C(=O)NCc1ccccc1Cl	25	nt	0.7	-6%	-4	-3	-0.9	-1.6
CC(C)(C)[C@H]1CCC(=O)N([C@H](CSc2ccc(Br)cc2)Cc2ccccc2)CC1	nt	-3.6	nt	nt	5	nt	0.6	0.1
O=C(Nc1ccnn1C1CCN(Cc2cccc(OCCO)c2)CC1)c1cccc(F)c1	-9	0.9	-0.9	nt	-2	6	0.8	-2.1
CN1C(=O)c2ccc(C(=O)Nc3cccnc3)cc2C1=O	32	2.6	-0.2	nt	-4	0	0.3	-8.7
C[C@]12CCC(=O)C=C1C=C[C@@H]1[C@@H]2CC[C@@]2(C)[C@H]1CC[C@@]21CCC(=O)O1	0	1.7	1.5	-8%	-1	13	1.3	4.9
CCCn1cnc2cc(NC(=O)c3cccs3)ccc21	-16	-1.0	-2.7	nt	5	6	-3.0	-3.3
(more compounds)
SMILES	Calb FLC	MLL AF4-AF9 inh	RanGTP-Imp inh	Vif TR-FRET	Beta apoptosis	T cruzi inh	A1 inh	LANA-H2A inh
CCN(CC)S(=O)(=O)c1ccc(N)cc1	1	-0.6	-1.2	-4%	-8	-18	-0.1	8.7
COCC(C)n1c(C)cc(C(=O)COC(=O)c2nn(C)c(=O)c3ccccc23)c1C (stereo not given)	nt	7.1	nt	7%	1	nt	-0.6	2.2
CC(C)CN(CC(C)C)CC(O)COc1ccc([N+](=O)[O-])cc1 (stereo not given)	0	6.6	0.2	nt	-3	3	-0.5	2.8
O=c1[nH]c(S)nc2sc3c(c12)CCCC3	23	nt	?	-10%	-7	-17	-0.3	2.8
COc1cccc(/C=C/C(=O)NNC(=O)c2ccco2)c1OC	nt	0.2	nt	16%	1	nt	-0.7	-3.4
CCCc1[nH]nc2c1C(c1ccoc1)C(C#N)=C(N)O2 (stereo not given)	7	1.1	?	-2%	-3	-5	-0.3	8.1
COc1ccccc1/C=C/C(=O)NCc1cccnc1	-15	-0.3	-0.7	nt	2	29	0.6	4.0
COc1ccc(OC)c(NC(=O)c2ccc(-c3cccs3)cc2)c1	28	nt	-0.5	-8%	0	10	-0.4	-9.2
CCn1c(SCC(=O)NC(=O)c2ccccc2OC)nc2ccccc21	2	-0.5	5.3	2%	-5	-14	0.5	0.0
